Bioassay records (PubChem BioAssay)
PKD1 kinase inh = inhibitors of human PKD1 kinase, biochemical, fluorescence polarization; PKD1 kinase fluorescence polarization assay; inhibition, %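 (about 10 µM by stock and volumes)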; actives 0.056% (n = 200,000);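 active = inhibition of 50% or more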;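 note: controls were vehicle for no effect and a reference inhibitor for full effect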
HSV replic up = enhancers of HSV replication in host cells, fold increase, host cell viability; actives 0.005% (n = 220,000); AID 1956, 2009; maximum fold increase; HSV replication augmentation in cells;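 active = peak rise of 1.5-fold or more in the series; inconclusive = self-fluorescent or not available for retest; tested in PC3 cells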;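 note: first round at 10 µM; read as green reporter fluorescence; hits show the peak of a series up to 25 µM; 1 = signal of infected wells without compound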
RGS16-Gao = modulators of RGS16 binding to Galphao, primary screen, biochemical, human proteins, multiplexed bead flow cytometry; Regulator of G-protein signaling 16 (Homo sapiens) + Guanine nucleotide-binding protein …; bead-based flow cytometry RGS16-Galphao binding, fluorescence; actives lie on both sides; binding response (% of control), % at 10 µM; actives 0.38% (n = 220,000);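 active = below 25% or above 175%, edge rows of some plates excepted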;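 note: Galphao activated by GDP with aluminum fluoride before binding; 100% = wells without compound and 0% = beads without RGS; some results beyond the cut were filed as inactive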
Target sequence (O15492 whole entry, looked up): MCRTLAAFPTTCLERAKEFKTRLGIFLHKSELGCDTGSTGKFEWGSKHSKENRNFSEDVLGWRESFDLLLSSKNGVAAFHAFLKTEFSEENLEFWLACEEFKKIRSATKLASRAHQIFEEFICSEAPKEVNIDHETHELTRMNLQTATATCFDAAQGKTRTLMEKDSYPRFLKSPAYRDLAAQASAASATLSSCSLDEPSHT
Target sequence (P09471 whole entry, looked up): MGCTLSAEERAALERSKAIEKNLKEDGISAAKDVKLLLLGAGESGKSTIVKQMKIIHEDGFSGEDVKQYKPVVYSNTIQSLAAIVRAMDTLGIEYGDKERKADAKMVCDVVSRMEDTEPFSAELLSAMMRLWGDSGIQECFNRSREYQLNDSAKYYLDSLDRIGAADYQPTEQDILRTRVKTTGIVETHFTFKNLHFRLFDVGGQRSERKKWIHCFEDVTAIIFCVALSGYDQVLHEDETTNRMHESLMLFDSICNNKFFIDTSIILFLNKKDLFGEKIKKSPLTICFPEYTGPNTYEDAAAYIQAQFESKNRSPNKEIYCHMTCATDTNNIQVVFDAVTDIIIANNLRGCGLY
Insulin prom inh = inhibitors of insulin promoter-driven GFP, primary screen, imaging, TRM-6 cells (human fetal islet line), eGFP reporter, cell count; reporter expression induced with tamoxifen; actives 0.9% (n = 130,000); inhibition, % at 2 µM; AID 1273, 2008;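 active = inhibition above the mean plus 3 SD, with well images judged a real hit on visual review, cut at about 60% in these data, passing the limit was not always enough; inconclusive = inhibition over the cutoff but images rejected on review; inactive = inhibition not above the cutoff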
GALR2 ag = GALR2 receptor agonists, primary screen, cell-based; Galanin receptor type 2 (Homo sapiens), O43603; GALR2-expressing cells, agonist activation read-out; activation, %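 (tested at 5 µM)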; actives 0.48% (n = 140,000); AID 803, 2007;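 active = above mean plus 3 SD of all compounds, about 5% in these data, not always enough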;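 note: 0% = vehicle buffer wells and 100% = reference agonist at full effect; tested in CHO reporter cells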
Target sequence (O43603 whole entry, looked up): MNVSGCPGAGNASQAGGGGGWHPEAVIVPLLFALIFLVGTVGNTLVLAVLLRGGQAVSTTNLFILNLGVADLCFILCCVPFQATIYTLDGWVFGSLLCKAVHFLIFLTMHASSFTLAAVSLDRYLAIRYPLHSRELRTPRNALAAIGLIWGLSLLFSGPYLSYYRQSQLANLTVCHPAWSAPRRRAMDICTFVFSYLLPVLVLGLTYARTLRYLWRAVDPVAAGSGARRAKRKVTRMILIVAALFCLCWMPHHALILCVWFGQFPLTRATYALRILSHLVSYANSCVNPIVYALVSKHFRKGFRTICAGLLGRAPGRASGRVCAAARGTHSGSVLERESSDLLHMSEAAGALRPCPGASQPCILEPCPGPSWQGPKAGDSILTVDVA
Insulin prom inh cell count = recorded beside Insulin prom inh, whose call it bears; normalized cell count, %; measured here: cell count, toxicity; reference of the scale not given here;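 cells exposed to compound for 48 h; stained nuclei by imaging scaled within each plate; lower means fewer cells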
HSV replic up primary fold = recorded beside HSV replic up, whose call it bears; fold increase; compound at 10 µM; measured here: primary screen fold increase 10 uM; tested in PC3 cells;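 GFP signal in the first replicate; 1 = infected wells without compound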
Active calls of the source: *; i = inactive; u = inconclusive; x = no result given; & = joins results of further samples. Only part of the results is shown, so the mix of outcomes need not match the whole.

SMILES | PKD1 kinase inh | HSV replic up | HSV replic up primary fold | RGS16-Gao | Insulin prom inh | Insulin prom inh cell count | GALR2 ag
Cc1cc(S(N)(=O)=O)ccc1N=Cc1c(O)n(-c2ccccc2)c(=O)[nH]c1=O | 5 | i | 0.94 | 100 | x | x | x
CCn1cc(C(=O)NCc2ccccc2)c2ccccc21 | 1 | i | 0.93 | 95 | x | x | x
CCSC1=NN1c1cc(C)nc(N)n1 | x | i | 1.1 | 97 | x | x | x
O=C(CF)NC(NC(=S)Nc1cccc([N+](=O)[O-])c1)C(Cl)(Cl)Cl (centres undefined) | -5 | i | 0.86 | 101 | -33 | 100 | x
CCC(=NCc1ccco1)c1c(O)n(Cc2ccccc2)c(=O)[nH]c1=O | -4 | i | 0.93 | 97 | x | x | -0.6
C=CCc1cc(C=C2C(=O)NC(=O)NC2=O)cc(OC)c1OCc1ccc(C(=O)O)cc1 | 0 | i | 0.9 | 95 | -40 | 109 | x
CN1CCC2(CC1)N=C(c1ccc(F)cc1)C(=S)N2 | 2 | i | 0.96 | 97 | -64 | 80 | x
COc1ccc(N2CCN(C(CNC(=O)Oc3ccccc3)c3cccnc3)CC2)cc1 (centres undefined) | -8 | i | 0.98 | 107 | -50 | 101 | -3.3
CCCCCn1c(=O)c(C(=O)NCc2ccncc2)c(O)c2ccccc21 | -12 | i | 0.91 | 95 | 57 | 159 | 0.1
CCCCCCN=C(CC)c1c(O)n(CCCC)c(=O)[nH]c1=O | 5 | i | 0.82 | 113 | 21 | 68 | 0.7
COCCn1cc(C(=O)N2CCC3(CC2)OCCO3)c2c3ccccc3n(C)c2c1=O | -4 | x | x | 98 | x | x | -2.3
O=C(COc1ccc2ccccc2c1)N1CCN(Cc2c[nH]c3ccccc23)CC1 | 3 | i | 0.95 | 105 | 30 | 116 | -0.5
O=C(CCN1CCCCC1)NCC(=O)Nc1ccc(Br)cc1C(=O)c1ccccc1 | -4 | i | 0.87 | 109 | x | x | -3.1
Cc1cccc(N2C(=O)NC(=O)/C(=C\c3ccc(N4CCOCC4)cc3)C2=O)c1 | x | i | 1 | 96 | x | x | x
C#CCN1C(=O)C2(C(C#N)=C(N)OC(C)=C2C(=O)OCc2ccccc2)c2ccccc21 (centres undefined) | 4 | i | 1 | 103 | x | x | -1.8
Cc1oc(C(=O)Nc2ccc(O)cc2)cc1COc1ccccc1 | 0 | i | 0.76 | 105 | -8 | 119 | -0.3
O=C(OCCN1CCOCC1)C1(c2ccccc2)CCCC1 | -2 | i | 1.1 | 105 | x | x | x
O=C(O)C1(c2ccc(Cl)cc2)CCC1 | -7 | i | 0.99 | 97 | 14 | 53 | -1.3
C=CCn1c(O)c(N=Nc2c(C)n(C)n(-c3ccccc3)c2=O)c(=O)[nH]c1=S | -3 | i | 0.96 | 45 | 17 | 51 | -1.2
COc1ccc(-c2nc3ccccc3c(=O)o2)cc1 | 2 | i | 0.99 | 102 | x | x | x
O=C(Cn1nc(-c2ccc(Cl)cc2)ccc1=O)N1CCC2(CC1)OCCO2 | -3 | i | 0.98 | 100 | 0 | 142 | x
Clc1cccc(Cl)c1C1N2CCCN12 (centres undefined) | 1 | i | 0.89 | 95 | -34 | 152 | -0.2
CC(=O)Nc1ccccc1C(=O)OCC(=O)c1ccccc1Cl | -2 | i | 1 | 111 | -43 | 123 | 0.6
CCOC(=O)C1CCN(/C=C2/C(=O)NC(=S)N(c3ccccc3F)C2=O)CC1 | -10 | i | 0.97 | 111 | x | x | x
O=C1Nc2ccccc2C1Cc1nc2ccccc2c(=O)n1-c1ccccc1 (centres undefined) | x | i | 0.87 | 98 | x | x | x
COCc1cc(OC(=O)N(C)C)nc(-c2ccc(C)c(Cl)c2)n1 | x | i | 1.2 | 101 | x | x | x
Cc1cc(Oc2ccc(C(F)(F)F)cc2[N+](=O)[O-])c2c3c(c(=O)oc2c1)CCC3 | 0 | i | 0.94 | 97 | -19 | 106 | -0.2
CN(C(=O)CN1CC=C(c2ccccc2)CC1)c1c(N)n(Cc2ccccc2)c(=O)[nH]c1=O | 1 | i | 0.98 | 103 | x | x | x
COC(=O)c1ccc(N=C(c2ccccc2)c2c(O)n(C)c(=O)n(C)c2=O)cc1 | x | i | 0.96 | 102 | x | x | x
CC12CCC3C(CC=C4CC(O)CCC43C)C1C/C(=C\N1CCCC1)C2=O (centres undefined) | x | i | 0.76 | 93 | x | x | x
COc1ccc(N2CC2c2ccncc2)cc1 (centres undefined) | -5 | i | 0.93 | 97 | x | x | x
COc1cc(OC)cc(C2(C#N)CCN(C)CC2)c1 | x | i | 1 | 104 | x | x | x
CC1(C)C2([N+](=O)[O-])CN3CC1([N+](=O)[O-])CN(C2)C3c1cccnc1 (centres undefined) | x | i | 1 | 95 | x | x | x
Cc1nc2cc(C(=O)N3CCC4(CC3)OCCO4)ccc2n1-c1cccc(F)c1 | -5 | i | 0.94 | 98 | -34 | 106 | -1.6
O=C(c1cccnc1)c1cc2ccccc2[nH]1 | -2 | i | 0.94 | 99 | 3 | 138 | 0.0
O=C1NC(=O)N(CCNc2ncc(C(F)(F)F)cc2Cl)C(=O)C1Cc1ccc(Cl)cc1 (centres undefined) | 1 | i | 0.95 | 109 | 11 | 176 | x
O=c1[nH]c(=S)n(CCC2=CCCCC2)c(O)c1/C=N/Nc1ccccc1 | x | i | 1.1 | 103 | x | x | x
Cc1cccc(N2C(=O)/C(=C/c3ccc(N4CCN(C)CC4)o3)C(=O)NC2=S)c1C | -14 | i | 1.3 | 107 | -73 | 95 | -3.2
Cc1cccc(OP(=O)(Oc2cccc(C)c2)OC(c2ccccc2)C(F)(F)F)c1 (centres undefined) | 1 | i | 1 | 112 | -50 | 106 | -1.7
CC1(C(O)(C#CCN2CCCCC2)c2ccccc2)CCCC1 (centres undefined) | -3 | x | x | 102 | x | x | x
Cc1ccc(OP(=O)(O)Oc2ccc(C)cc2)cc1 | -1 | i | 0.92 | x | 11 | 95 | -0.1
Fc1ccc(C2=CCN(C(c3cccs3)c3nnnn3CCc3ccccc3)CC2)cc1 (centres undefined) | 2 | i | 0.96 | 104 | -43 | 119 | -1.3
CCC(=NCc1cc(OC)cc(OC)c1)c1c(O)[nH]c(=O)[nH]c1=O | x | i | 0.8 | 98 | x | x | x
COCCCN1Cc2ccccc2C1=N | 3 | i | 1.1 | 113 | -29 | 83 | 0.9
O=C(Nc1ccccc1)N1CCC2(CC1)OCCO2 | -2 | i | 1.1 | 104 | -11 | 104 | x
CCn1c(O)c(/C=N/NC(=O)c2ccccc2)c(=O)n(CC)c1=S | x | i | 1.1 | 104 | x | x | x
O=C1NC(=S)N(c2ccc(Cl)cc2)C(=O)/C1=C/N1CCN(C(=O)c2ccco2)CC1 | 2 | i | 1 | 99 | x | x | -3.1
CN(C)CC1Oc2ccccc2OC1(O)c1ccccc1 (centres undefined) | x | i | 0.65 | 96 | x | x | x
O=C1C2CCCN2C(c2cccc(Cl)c2)N1c1ccccn1 (centres undefined) | 20 | i | 0.56 | 100 | 40 | 57 | -2.4
O=C(Cn1ncc2ccsc2c1=O)N1CCC2(CC1)OCCO2 | -10 | i | 1.1 | 117 | x | x | -2.3
CC(=O)OC1C2CCC1C(N1CCCC1)CC2 (centres undefined) | -8 | i | 1 | 112 | -13 | 39 | -3.3
CCNc1cc(N2CCNCC2)ccc1[N+](=O)[O-] | -4 | i | 0.93 | 104 | x | x | x
CCC(=O)OC1(Cc2ccc(CC)cc2)CC(C)N(C)CC1C (centres undefined) | x | i | 1.1 | 96 | x | x | x
Cn1c2ccccc2c2cnn(CC(=O)N3CCC4(CC3)OCCO4)c(=O)c21 | -3 | x | x | 98 | -15 | 123 | -2.3
CCC(=NCc1ccco1)c1c(O)n(-c2ccc(Cl)cc2)c(=O)[nH]c1=O | x | i | 0.98 | 100 | x | x | x
CCN(CC)CCCOC(=O)C(OC)(c1ccccc1)c1ccccc1 | 0 | i | 0.83 | 98 | -27 | 128 | 0.3
O=c1[nH]c(CN2CCNCC2)nc2ccccc12 | -4 | i | 0.91 | 103 | 3 | 64 | -0.9
C(#CCN1CCOCC1)COCc1ccccc1 | 0 | i | 1.1 | 103 | x | x | -3.0
CN1CCc2nc3ccc(F)cc3c(C(N)=O)c2C1 | -2 | i | 0.94 | 101 | 32 | 84 | -2.3
CN1CCN(c2ccc([N+](=O)[O-])c3no[n+]([O-])c23)CC1 | x | u | x | 105 | x | x | x
(more compounds)
SMILES | PKD1 kinase inh | HSV replic up | HSV replic up primary fold | RGS16-Gao | Insulin prom inh | Insulin prom inh cell count | GALR2 ag
O=S(=O)(c1ccccc1)N1CCCCC1c1cccnc1 (centres undefined) | 8 | i | 0.85 | 97 | -23 | 74 | -3.4
Cc1ccc(S(=O)(=O)N(C)C/N=C(\N)N[N+](=O)[O-])cc1 | 2 | i | 1 | 81 | 45 | 76 | x
CN1CCC2(CC1)C(C#N)=C(N)NC(S)=C2C#N | 3&-11 | u | 1.3 | 93&60 | x | x | -1.1
O=C(NC(C(Cl)Cl)N1CCOCC1)c1ccccc1 (centres undefined) | -6 | i | 0.84 | 101 | -22 | 119 | x
CN1OC[C@@H]2COc3ccc4ccccc4c3[C@@H]21 | -4 | i | 1 | 104 | 19 | 109 | x
Cc1cccc(N=Cc2c(O)n(-c3ccccc3C)c(=O)[nH]c2=O)c1 | -8 | i | 0.78 | 90 | -26 | 90 | -1.7
CCc1c(C)nc(N)nc1N1N=C1SCC#N | 2 | i | 0.97 | 100 | -14 | 221 | 1.4
COc1ccc(-c2nc(CSCC(=O)N3CCC4(CC3)OCCO4)c(C)o2)cc1OC | -10 | i | 1 | 104 | 43 | 84 | -1.2
Cc1nc2ccccc2c(=O)n1-c1ccc(Br)cn1 | x | i | 1.1 | 99 | x | x | x
Cc1ccc(N=Nc2c(O)[nH]c(=O)[nH]c2=O)c([N+](=O)[O-])c1 | 1 | i | 0.91 | 98 | x | x | -4.0
CC(C)n1c(O)c(C=NCc2cccnc2)c(=O)[nH]c1=S | x | i | 0.96 | 96 | x | x | x
CCCCc1nc2ccccc2c(=O)n1-c1ccc(Cl)cc1[N+](=O)[O-] | -6 | i | 0.81 | 104 | 7 | 114 | -0.9

Of the compounds above, these have an NH in an aromatic ring.
SMILES | PKD1 kinase inh | HSV replic up | HSV replic up primary fold | RGS16-Gao | Insulin prom inh | Insulin prom inh cell count | GALR2 ag
Cc1cc(S(N)(=O)=O)ccc1N=Cc1c(O)n(-c2ccccc2)c(=O)[nH]c1=O | 5 | i | 0.94 | 100 | x | x | x
CCC(=NCc1ccco1)c1c(O)n(Cc2ccccc2)c(=O)[nH]c1=O | -4 | i | 0.93 | 97 | x | x | -0.6
CCCCCCN=C(CC)c1c(O)n(CCCC)c(=O)[nH]c1=O | 5 | i | 0.82 | 113 | 21 | 68 | 0.7
O=C(COc1ccc2ccccc2c1)N1CCN(Cc2c[nH]c3ccccc23)CC1 | 3 | i | 0.95 | 105 | 30 | 116 | -0.5
C=CCn1c(O)c(N=Nc2c(C)n(C)n(-c3ccccc3)c2=O)c(=O)[nH]c1=S | -3 | i | 0.96 | 45 | 17 | 51 | -1.2
CN(C(=O)CN1CC=C(c2ccccc2)CC1)c1c(N)n(Cc2ccccc2)c(=O)[nH]c1=O | 1 | i | 0.98 | 103 | x | x | x
O=C(c1cccnc1)c1cc2ccccc2[nH]1 | -2 | i | 0.94 | 99 | 3 | 138 | 0.0
O=c1[nH]c(=S)n(CCC2=CCCCC2)c(O)c1/C=N/Nc1ccccc1 | x | i | 1.1 | 103 | x | x | x
CCC(=NCc1cc(OC)cc(OC)c1)c1c(O)[nH]c(=O)[nH]c1=O | x | i | 0.8 | 98 | x | x | x
CCC(=NCc1ccco1)c1c(O)n(-c2ccc(Cl)cc2)c(=O)[nH]c1=O | x | i | 0.98 | 100 | x | x | x
O=c1[nH]c(CN2CCNCC2)nc2ccccc12 | -4 | i | 0.91 | 103 | 3 | 64 | -0.9
Cc1cccc(N=Cc2c(O)n(-c3ccccc3C)c(=O)[nH]c2=O)c1 | -8 | i | 0.78 | 90 | -26 | 90 | -1.7
Cc1ccc(N=Nc2c(O)[nH]c(=O)[nH]c2=O)c([N+](=O)[O-])c1 | 1 | i | 0.91 | 98 | x | x | -4.0
CC(C)n1c(O)c(C=NCc2cccnc2)c(=O)[nH]c1=S | x | i | 0.96 | 96 | x | x | x
